NPYLR7 ag: agonists of mosquito NPYLR7 receptor, primary screen, cell-based, Aedes aegypti, calcium fluorescence, mosquito biting behavior; 270,000 tested, 0.15% active; Aedes aegypti neuropeptide Y-like receptor 7 (NPYLR7); AID 1259423, 2018; activation, % at 10 µM; HEK293T NPYLR7/Galpha15, GCaMP6s calcium fluorescence; in the data active means activation above about 40%;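 further: 0% = vehicle and 100% = reference agonist at the receptor; some compounds past the cut are filed as inactive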
NPYLR7 ag max-min: further read-out of NPYLR7 ag, marked with its call; activation, %; measured here: Max-Min RFU normalised activation; some inactives read as strong as hits;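 span of the calcium signal over five minutes; 0% = vehicle and 100% = native peptide agonist; compound fluorescence can raise it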
Active calls of the source: *; & = joins results of further samples. Some of the compounds tested, so the mix of outcomes need not match the whole.

Values run as follows: NPYLR7 ag, NPYLR7 ag max-min
- CC(C)c1ccc(NC(=O)N2CCC3(CC2)SCCN3C(=O)CCc2ccccc2)cc1
→ -5, 0
- N#CCN1CCC/C1=C\[N+](=O)[O-]
→ 1, 0
- O=C(NC1CCN(Cc2ccccc2)CC1)c1cn(CC2CCCO2)nn1 (stereo not drawn)
→ 4, 2
- Cc1n[nH]c(C)c1S(=O)(=O)N1CCCC(C)C1 (stereo not drawn)
→ 10, 3
- Cc1ccc(S(=O)(=O)N2CCCCC2C2CCCN2C(=O)OC(C)(C)C)cc1C(N)=O (stereo not drawn)
→ 0, 22
- Cn1c(=O)[nH]c(=O)c2cc(C(=O)Nc3cc4c(cc3Cl)OCCO4)cnc21
→ 0, -3
- CC(C)C(Nc1ncnc2sc3c(c12)CCC3)C(=O)O (stereo not drawn)
→ 17, 14
- Cc1cc(N2CCOCC2)ccc1NC(=O)Cn1cccnc1=O
→ -1, -3
- COc1cc([C@@H]2c3cc4c(cc3C(OC3O[C@@H]5COC(C)O[C@H]5[C@H](O)[C@H]3O)C3COC(=O)[C@@H]32)OCO4)cc(OC)c1O (stereo partly drawn)
→ -8, -12
- Cc1cc(=O)[nH]c(=S)n1CCO
→ 10, 10
- O=C(Oc1cc(=O)n(-c2ccccc2)c2c1CCCC2)c1ccc([N+](=O)[O-])cc1
→ 1, 5
- COc1ccc(CNC(=O)CCC2CCCN(C(=O)/C=C/c3ccccn3)C2)c(OC)c1 (stereo not drawn)
→ 13, 10
- COc1ccc(NC(=O)C2CCN(C(=O)[C@@H](Cc3ccccc3)NC(=O)Nc3ccc(I)cc3)CC2)cc1
→ 4, 3
- COc1ccc(C(=O)NC(Cc2ccccc2)C(=O)Nc2nnc(-c3ccc(F)cc3)s2)c(OC)c1 (stereo not drawn)
→ -2, 8
- Fc1ccc(CNCC2(c3ccnc(C4CC4)c3)CC2)cc1
→ 8, 13
- CCCSC1=C(C#N)C(c2ccc([N+](=O)[O-])cc2)CC(=O)N1 (stereo not drawn)
→ -2, -5
- Cc1cc(NC(=O)C2CC(=O)N(c3ccccc3Br)C2)no1 (stereo not drawn)
→ 0, 0
- CCOC(=O)c1ccc(NC(=O)CSc2nccn3nc(-c4ccc(OC)cc4)cc23)cc1
→ 0, -3
- COc1cccc(NC(=O)Cn2nc(Nc3ccccc3)c(S(=O)(=O)c3ccc(F)cc3)c2N)c1
→ 0, -3
- COc1ccc(O)c(C=NNc2ncnc3sc4c(c23)CCCC4)c1
→ 2, -3
- CCOc1ccc(Cl)cc1CNc1nnnn1CC
→ -1, -3
- COCCCN(Cc1csc(COc2ccc(OC)cc2)n1)C(=O)NC(C)(C)C
→ 5, 7
- COc1cc(OC)cc(C2CCN(CCn3cncn3)C2)c1 (stereo not drawn)
→ -2, -4
- CC(C)c1ccc(Nc2ncc3c(n2)CCN(C(=O)Nc2ccc(F)c(Cl)c2)C3)cc1
→ -1, -3
- Cc1ccc(C(=O)N(C)CC2Cc3ccccc3O2)cc1NC(=O)C1CC1 (stereo not drawn)
→ 10, -1
- COc1ccc(COC(=O)c2csc(-c3ccc(OC)c(OC)c3)n2)cc1OC
→ 9, 11
- Cn1cc(C(CC(=O)NC(C)(C)C)c2cccc(F)c2)c2ccccc21 (stereo not drawn)
→ 22, 29
- Nc1nc2n(n1)C1(CCCCC1)C1CCCCC1=N2 (stereo not drawn)
→ 7, 0
- CCOC(=O)CN1C(=O)CN(C(=O)c2ncoc2-c2ccccc2)CCC(OC)c2ccccc21 (stereo not drawn)
→ 4, 7
- COCCN(CC(=O)Nc1cccc(Cl)c1)C1CCS(=O)(=O)C1 (stereo not drawn)
→ 2, 0

Taken from the entries so far, two compounds:
Values run as follows: NPYLR7 ag, NPYLR7 ag max-min
- CCOC(=O)CN1C(=O)CN(C(=O)c2ncoc2-c2ccccc2)CCC(OC)c2ccccc21 (stereo not drawn)
→ 4, 7
- COCCN(CC(=O)Nc1cccc(Cl)c1)C1CCS(=O)(=O)C1 (stereo not drawn)
→ 2, 0

Following part
Values run as follows: NPYLR7 ag, NPYLR7 ag max-min
- COCCN(CC(=O)N(CCc1c[nH]c2ccccc12)Cc1ccccc1OC)C(=O)c1ccc(Cl)cc1
→ -2, 7
- NC(=O)C(c1ccc(F)cc1)N1CCN(Cc2ccco2)CC1 (stereo not drawn)
→ -3, -3
- O=C(Nc1ccc(F)cc1F)N1CCC2(CC1)SCCN2C(=O)c1ccc(F)cc1
→ -5, 4
- C=CCN(Cc1cccc(C#N)c1)S(=O)(=O)c1ccc(C#N)cc1
→ -2, -4
- Cc1ccc(O)c(C(=O)c2cnc3c(c2)c(=O)[nH]c(=O)n3CC(C)C)c1
→ 2, 0
- Brc1ccccc1-c1nc(-c2ncccn2)no1
→ -6, -6
- COc1ccc(C(=O)N2CCN(C(C(=O)NCC3CC3)C3CCCC3)CC2)cc1 (stereo not drawn)
→ -2, 5
- CN(Cc1cccc(F)c1)C(=O)c1cc(C2CC2)[nH]n1
→ 1, 1
- CCc1nc(C)nc(N2CCN(C(=O)c3cccs3)CC2)c1Cc1ccccc1F
→ -3, 9
- O=C(CC1CCCC1)NCc1nnc(-c2ccc(Cl)cc2)o1
→ 10, 4
- O=S1(=O)N=C(Nc2ccc(F)cc2)c2ccccc21
→ -3, -2
- COc1cccc(NC(=O)N2CCC3(CC2)NC(=O)c2cccc(C)c2N3)c1
→ -2, 6
- O=C(Cn1c2c(c3ccccc31)CCC2)NCC1CCS(=O)(=O)C1 (stereo not drawn)
→ -1, -4
- N#Cc1ccc(Oc2cccc3cccnc23)c([N+](=O)[O-])c1
→ 3, 2
- O=C(/C=C/c1cn(S(=O)(=O)c2cccc3ccccc23)c2ccccc12)NCCCO
→ -12, -18
- COC(=O)c1ccc(-c2nc(CN(C)Cc3ccc4nsnc4c3)c(C)o2)cc1
→ 0, -3
- CC(C)=CCCC(C)[C@@H]1CC[C@]2(C)C3=C(CC[C@@]12C)C1(C)CC[C@H](O)C(C)(C)C1CC3 (stereo partly drawn)
→ -7, -12
- CC(Oc1cc(Cl)cc(Cl)c1)C(=O)N1CCC(C2(C)NC(=O)NC2=O)CC1 (stereo not drawn)
→ -6, -5
- O=C1NC2(CCOc3ccccc32)C(=O)N1Cc1nnc(-c2ccc(Br)o2)o1 (stereo not drawn)
→ 0, -1
- O=C(c1ccoc1)N1CCCC(N2CCN(c3cccc(C(F)(F)F)c3)CC2)C1 (stereo not drawn)
→ -1, -4
- COc1ccc(C)cc1NC(=O)c1c(C)c(N2CCOCC2)c(C)n1Cc1ccccc1C
→ 4, 10
- Cc1c(CN2CCCC2c2ccccn2)[nH]c2ccc(F)cc12 (stereo not drawn)
→ 9, 0
- O=C(Nc1ccnn1Cc1c(Cl)cccc1Cl)NC1CC1
→ 7, 4
- COC(=O)C1(NC(=O)c2cccc(S(=O)(=O)N(C)C3CCCCC3)c2)CCCCC1
→ 8, 3
- Cc1oc(-c2ccc(-c3ccccc3)cc2)nc1CN1CCCCC1CO (stereo not drawn)
→ 9, -3
- Cn1c(=O)[nH]c(=O)c2c1nc(N1CCCCCC1)n2CC(N)=O
→ 4, 10
- CSCCNC(=O)CC1C(=O)NCCN1Cc1ccccc1 (stereo not drawn)
→ 19, 8
- CC1CN(c2ncnc3sc4c(c23)CCCC4)CC(C)O1 (stereo not drawn)
→ 11, 8
- c1ccc(CN=C2NN=C(c3ccccc3)CS2)cc1
→ 9, 4
- Cc1ccc(-c2cc(N3CCN(C)CC3)n3nccc3n2)cc1
→ -8, -11

Full records as entered above. Screens in order: NPYLR7 ag	NPYLR7 ag max-min
Entry for Brc1ccccc1-c1nc(-c2ncccn2)no1 = -6	-6
Entry for O=C(Nc1ccnn1Cc1c(Cl)cccc1Cl)NC1CC1 = 7	4
Entry for COC(=O)c1ccc(-c2nc(CN(C)Cc3ccc4nsnc4c3)c(C)o2)cc1 = 0	-3

(listing goes on)
Values run as follows: NPYLR7 ag, NPYLR7 ag max-min
- Cn1c(=O)c2c(nc(CO)n2C)n(C)c1=O
→ 6, 4
- CC1CN(S(=O)(=O)c2cccc(C(=O)Nc3cnn(C)c3)c2)CC(C)O1 (stereo not drawn)
→ -2, -5
- CCOCCN1CCN(c2nccc(CCC(F)(F)F)n2)CC1
→ -11, -13
- COc1ccc(CN2CCn3nc(C(=O)NCc4cccc(C(F)(F)F)c4)cc3C2=O)cc1
→ 20, 17
- CCOC(=O)C(=Cc1c(C)nc2sccn12)C(=O)c1[nH]c(C)c(C(=O)OCC)c1C
→ -2, -2
- N#Cc1ccccc1NC(=O)COc1cc(Cl)ccc1Cl
→ -8, -9
- CC(c1ccncn1)N(C)C(=O)c1cn(C/C=C/c2ccccc2)nn1 (stereo not drawn)
→ 15, 2
- CCOC(=O)c1nn(-c2ccccc2C)c(=O)cc1NCc1ccccc1OC
→ 2, -1
- Cc1ccc(C(=O)NC(C(=O)NN(C)C)C23CC4CC(CC(C4)C2)C3)cc1 (stereo not drawn)
→ 20, 13
- COc1ccc(C(=O)c2ccccc2)c(O)c1O
→ -9, -17
- COCCNC(=O)c1cnn2c1NC(c1ccc(OC)c(OC)c1)CC2C(F)(F)F (stereo not drawn)
→ -2, -8
- Cc1[nH]c2ccccc2c1N=Nc1cccnc1
→ 7, 5
- OC1CCCN(c2ccnc(N3CCOc4ccccc4C3)n2)C1 (stereo not drawn)
→ -9, -13
- COc1ccc2[nH]c3c(c2c1)CCN(C(=O)c1cc2ccccc2s1)C3c1ccc(-c2ccccc2C(F)(F)F)o1 (stereo not drawn)
→ 5, 5
- Cc1cccc(-c2cc(N)n(-c3ccc(C(=O)NCCOc4ccccc4Cl)cc3)n2)c1
→ -7, -13
- Cc1[nH]c2nc3c(c(=O)n(Cc4ccc(Cl)cc4)c(=O)n3C)n2c1C
→ -1, 3
- COc1ccccc1-c1ccc2c(c1)C(C)(Cc1cccc(C#N)c1)C(=O)N2 (stereo not drawn)
→ 1, 1
- N#CC1c2nc3ccccc3n2[C@H]2C[C@@]1(O)[C@@H]1OC[C@H]2O1 (stereo partly drawn)
→ 2, 11
- CCCSc1ncccc1C(=O)Nc1cc(-c2onc3c2CCc2ccccc2-3)ccc1OC
→ 25, 12
- O=C(C1CC1)N1CCN(S(=O)(=O)c2ccc3c(c2)CCCC3)CC1
→ 6, 10
- C=CCSc1nnc(NC(=O)C2CCCCC2)s1
→ -1, -7
- CC(=O)c1ccccc1NC(=O)C(C)Nc1ccc(C)cc1C (stereo not drawn)
→ 18, 39
- COc1ccc(OC)c(NC(=O)Cn2c(C)cc(C)c(C#N)c2=O)c1
→ -3, -13
- Cc1cccc(OCCn2c(CCNC(=O)C(C)(C)C)nc3ccccc32)c1
→ 0, 8
- CN(CCc1ccccn1)C(=O)CCC1CCCN(C(=O)c2cc3sccc3[nH]2)C1 (stereo not drawn)
→ -2, -4
- C[C@]12CCC(=O)C=C1CC[C@@H]1[C@@H]2C(=O)C[C@@]2(C)[C@H]1CC[C@]2(O)C(=O)CO
→ 15&0&1, 16&-4&2
- COc1cccc(-c2nc(-c3ccc(C#N)cc3)cs2)c1OC
→ 5, 5
- C#CCn1c(=NC(=O)c2ccn(C)n2)sc2cc(OC)c(OC)cc21
→ 1, 6
- CC(=O)[C@@]1(O)CCC2C3CCC4=CC(=O)CC[C@]4(C)C3CC[C@@]21C (stereo partly drawn)
→ -6, -12
- NS(=O)(=O)c1ccc(N2CCN(c3ccc(O)cc3)CC2)nc1
→ 23, 29
- CN(C)c1cccc(Nc2cc3c(cn2)ncn3CC2CC2)c1
→ 11, 6
- O=[N+]([O-])c1ccc(-c2nnc3c4ccccc4nc(Cl)n23)cc1
→ 9, 0
- CCOP(=O)(Cc1ccc(NC(=O)c2ccc(C(F)(F)F)c(F)c2)cc1)OCC
→ -22, -27
- COC(=O)N1CCc2nn(Cc3ccc(C(C)(C)C)cc3)c(=O)cc2C1
→ 14, 12
- CC1CCN(CCCNC(=O)c2ccc(-c3nnc(-c4ccccc4)o3)cc2)CC1
→ 1, 0
- CCCc1cc(=O)[nH]c(SCC(=O)N(C)CC(=O)Nc2ccc(F)cc2)n1
→ 4, 2
- Cc1c(C(=O)NS(=O)(=O)c2ccc(C#N)cc2)oc2c1C(=O)CCC2
→ -19, -22
- CCC(C)NC(=O)C1CC(C)N(CC(=O)NCC2CC2)c2ccccc21 (stereo not drawn)
→ 5, 4
- CCCCN(C=O)c1c(CC)nc2c(OCCn3cccc3)cccn12
→ -15, -7
- Cn1nc(-c2cccc(NC(=O)Cc3ccc(-c4ccccc4)cc3)c2)ccc1=O
→ 2, 1
- CCCN(Cc1nc2sc3c(c2c(=O)[nH]1)CCCC3)CC(O)c1ccccc1 (stereo not drawn)
→ 12, 7
- Cc1ccc(-c2nc(C(N)=O)c3[nH]c(=O)n(-c4ccccc4F)c3n2)cc1
→ -4, -8
- Cc1cc(C)cc(CC(=O)N2CCC2(C)C(=O)NC2Cc3ccccc3C2)c1 (stereo not drawn)
→ 7, 7
- Cc1ccccc1-c1ncc(CN2CCCC(C(=O)c3sccc3C)C2)cn1 (stereo not drawn)
→ 3, 0
- COc1cccc(S(=O)(=O)Nc2ccc(Nc3cc(-n4cccn4)nc(C)n3)cc2)c1
→ -4, -10

Another view of four compounds above:
SMILES | NPYLR7 ag | NPYLR7 ag max-min
CCCN(Cc1nc2sc3c(c2c(=O)[nH]1)CCCC3)CC(O)c1ccccc1 (stereo not drawn) | 12 | 7
Cc1ccc(-c2nc(C(N)=O)c3[nH]c(=O)n(-c4ccccc4F)c3n2)cc1 | -4 | -8
Cc1cc(C)cc(CC(=O)N2CCC2(C)C(=O)NC2Cc3ccccc3C2)c1 (stereo not drawn) | 7 | 7
Cc1ccccc1-c1ncc(CN2CCCC(C(=O)c3sccc3C)C2)cn1 (stereo not drawn) | 3 | 0

Compound activity (PubChem BioAssay)
